Screens (PubChem BioAssay)
Rango dissoc inh: prevents RanGTP from dissociating the Rango-importin beta complex; Biochemical FRET Rango-importin beta, RanGTP-induced dissociation; Potency, µM (titrated, usually from 46.1 µM), for inactives: top-dose activity change, negative = inhibition; 340,000 compounds, 0.071% hits; active means falling FRET ratio curve, often poorly fitted, with flat reads before Ran was added; inconclusive means other falling curves, or compound fluorescence or quenching; inactive means flat or rising ratio curve;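 note: potency is the fitted concentration of half-maximal effect; % of control where 0% means no effect; nearly all actives have a fitted effect of over 45% in size; -100% = wells without RanGTP and RCC1; the record marks most hits as doubtful in a second field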
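Two FRET readings bracket the reaction: one 5 min after compound meets Rango–importin beta, another 45 min after RanGTP-RCC1 (0.6 uM Ran, 0.2 uM RCC1, 2 mM GTP) is added. Only the second defines inhibition.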
GLA inh pH 4.5: inhibitors of human alpha-galactosidase A at pH 4.5; P06280; AID 1467; 230,000 tested, under 10 active; activity change, negative = inhibition, % at 105 µM; purified enzyme, 4-MU-alpha-Gal fluorescence, pH 4.5; inconclusive = small, poorly fitted or top-dose-only inhibition, or a rising curve; inactive = flat fitted curve, though single readings scatter; no compound was filed as active;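 note: 0% = full activity with enzyme and -100% = basal without enzyme; dose as in the result columns while the protocol names 77 µM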
Target sequence (P06280 whole entry, looked up): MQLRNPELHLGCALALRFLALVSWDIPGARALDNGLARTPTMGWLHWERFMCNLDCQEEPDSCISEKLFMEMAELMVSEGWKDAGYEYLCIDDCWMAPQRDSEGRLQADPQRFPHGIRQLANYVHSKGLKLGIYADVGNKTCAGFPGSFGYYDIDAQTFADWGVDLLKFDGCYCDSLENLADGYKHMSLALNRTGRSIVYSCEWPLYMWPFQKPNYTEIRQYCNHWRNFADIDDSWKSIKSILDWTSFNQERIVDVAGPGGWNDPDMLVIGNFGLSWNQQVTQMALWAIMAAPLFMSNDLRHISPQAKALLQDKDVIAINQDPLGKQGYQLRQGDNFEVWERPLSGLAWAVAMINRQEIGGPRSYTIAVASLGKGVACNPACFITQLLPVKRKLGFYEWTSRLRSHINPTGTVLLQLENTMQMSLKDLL
miR-21 reporter: raises the signal of a miR-21 reporter | HeLa miR-21 FLuc reporter, luciferase, 48 h | Potency, µM (top dose mostly 38.3 µM), for the others: at the highest dose reporter change, positive = more light | 340,000 tested, under 10 active | AID 2288; active = well fitted rising curve with a large enough effect; inconclusive = small, poorly fitted or top-dose-only effect; inactive = no such curve, though single readings can be large or run the other way;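 note: % of control where 0% means no effect; miR-21 action dims this reporter so a rising signal means less miR-21 action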
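HeLa cells endogenously expressing miR-21, stably carrying CMV-driven firefly luciferase with a downstream miR-21 binding site, 2000 cells/well. Titrations up to approximately 40 uM, 48 hours; luciferase luminescence read.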
Rango-impB inh: inhibitors of Rango-importin beta complex formation. Rango CFP/YFP FRET sensor + importin beta, 45 min. 340,000 compounds, 0.031% hits. Potency, µM (doses to about 92.2 µM), inactives show top-dose inhibition of complex formation. Q14974; active = rising FRET ratio curve, often small or poorly fitted; inconclusive = mostly compound fluorescence or quenching in the first reads; inactive = flat curves in all reads;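 note: potency is the fitted concentration of half-maximal effect; 0% = DMSO wells and 100% = buffer wells lacking importin beta; nearly all actives have a fitted effect of over 15% in size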
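Inhibition scored from the CFP 486 nm/YFP 530 nm FRET ratio 45 min after adding 0.125 microM importin beta to 50 nM Rango biosensor preincubated 5 min with compound (room temperature, PBS with DTT, Tween-20, BSA). No-importin wells as positive control.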
Active calls of the source: *; ? = inconclusive; . = not tested or not shown. An excerpt, so the mix of outcomes need not match the whole.

Rango dissoc inh	GLA inh pH 4.5	miR-21 reporter	Rango-impB inh	Molecule
4%	4	-10%	1.0%	CC(C)[C@H](NC(=O)c1ccco1)C(=O)OCC(=O)NC12CC3CC(CC(C3)C1)C2
-5%	.	.	0.0%	N#CC1(Nc2ccc(S(N)(=O)=O)cc2)CCCC1
12%	.	1%	-0.9%	CN(C(=O)c1cccc(C(=O)N(C)c2ccccc2)c1)c1ccccc1
23%	.	.	-3.8%	CCN(C(=O)CSc1nc2ccc([N+](=O)[O-])cc2s1)c1c(N)n(Cc2ccccc2)c(=O)[nH]c1=O
-15%	4	-18%	?	O=C(CN1c2cccc3cccc(c23)S1(=O)=O)Nc1cccc(S(=O)(=O)N2CCOCC2)c1
2%	-20	7%	-0.5%	CCOC(=O)C1CCN(Cc2nc3ccccc3c(=O)n2-c2ccc(OCC)cc2)CC1
9%	.	0%	-1.2%	Cc1cc(C)cc(OCC(=O)Nc2ccccc2C(=O)N2CCOCC2)c1
-7%	.	.	-1.9%	O=C(CCC(=O)N1CCOCC1)NCCc1ccc(F)cc1
-14%	-6	-3%	-0.5%	COc1ccnc(N=CNOCc2ccc(F)cc2Cl)c1C#N
.	-8	-13%	.	COC(=O)c1ccc(OC(=O)c2ccccc2F)cc1
-13%	.	-23%	-2.6%	O=C(Nc1ccc2ccccc2c1)c1ccc2[nH]c(=O)c(=O)[nH]c2c1
-3%	-3	14%	2.7%	Cn1nc(-c2ccc(OCC(=O)Nc3cccnc3)cc2)c2ccccc2c1=O
-14%	-8	-12%	-1.1%	CN1CCN(/N=C/c2nc(-c3cccc([N+](=O)[O-])c3)n3ccccc23)CC1
12%	-3	-7%	0.1%	Cc1ccc(C(=O)CSc2nnc(-c3ccco3)n2CC2CCCO2)cc1 (stereo unspecified)
-4%	0	0%	-2.0%	CC(C)OCCCNC(=O)Cc1ccc(Br)cc1
-3%	7	-47%	1.6%	CC(=O)c1sc(N)c(C(=O)OC(C)C)c1C
5%	1	-4%	0.0%	Cc1nc2ccc(S(=O)(=O)NCC(=O)N3CCN(c4ccccn4)CC3)cc2s1
-2%	-17	0%	3.2%	Cc1ccc(S(=O)(=O)N2CCN(CC(=O)N/N=C\c3ccc(Cl)c([N+](=O)[O-])c3)CC2)cc1
-9%	3	-1%	4.1%	Cc1ccc(S(=O)(=O)N2CCC(C(=O)NNC(=O)c3cccnc3)CC2)cc1
?	.	-2%	-4.3%	CCOC(=O)c1c(S(=O)(=O)NCCc2ccco2)c(C)n(C)c1C
3%	.	-4%	-0.6%	CCCN1C2CCCC1CC(NC(=O)c1ccc(Br)cc1)C2 (stereo unspecified)
4%	2	0%	0.1%	COc1ccc(CCNC(=O)CSc2nc3ccccc3c3nc(CCN4CCCCC4)nn23)cc1OC
0%	4	-61%	0.1%	CCc1ccc(C(=O)Nc2cc(C)ccc2F)s1
2%	.	0%	1.5%	CCOc1ccc(CNc2nnnn2C)cc1
3%	3	7%	3.3%	Cc1oc(-c2cccc(Cl)c2)nc1CN1CCCC(C(=O)NCc2ccco2)C1 (stereo unspecified)

Complete entries as entered above.
CCOc1ccc(CNc2nnnn2C)cc1 across the screens: Rango dissoc inh = 2%; GLA inh pH 4.5 = .; miR-21 reporter = 0%; Rango-impB inh = 1.5%
CCCN1C2CCCC1CC(NC(=O)c1ccc(Br)cc1)C2 (stereo unspecified) across the screens: Rango dissoc inh = 3%; GLA inh pH 4.5 = .; miR-21 reporter = -4%; Rango-impB inh = -0.6%

(cont.)
Rango dissoc inh	GLA inh pH 4.5	miR-21 reporter	Rango-impB inh	Molecule
12%	2	-5%	5.8%	O=C(CS(=O)(=O)Cc1ccccc1)Nc1ccc(Cl)cn1
3%	.	.	?	Clc1cc(/C=N\NC2=NCCN2)cc(Cl)n1
?	.	?	?	COc1cc(OC)c(OC)cc1/C=C1\CC(C)C/C(=C\c2cc(OC)c(OC)cc2OC)C1=O (stereo unspecified)
-29%	.	.	?	O=C(CSc1nc(=O)n2cc(Cl)ccc2n1)NCCc1ccccc1
-5%	.	-8%	-4.2%	COc1ccc(C(OCC(O)CN(C)C2CCCCC2)c2ccc(OC)cc2)cc1 (stereo unspecified)
0%	-1	-2%	-3.5%	Cc1c(N(C)C)nc2ccccc2c1N
17%	-3	-32%	0.0%	CN(CC(=O)Nc1cccc(F)c1)CC(=O)Nc1ccc(Cl)cc1[N+](=O)[O-]
1%	.	.	0.2%	O=C(NCC1CC1)c1ccc2c(c1)S(=O)(=O)c1cc(Cl)ccc1C2=O
-8%	-5	-22%	-0.2%	Clc1ccc(-c2nnc(CSc3nnc(-c4cccs4)o3)o2)cc1
-1%	.	0%	0.0%	COc1cccc(N2CCN(c3ccc4nnc(CCC(=O)Nc5ccc(OC)c(OC)c5)n4n3)CC2)c1
-5%	-9	3%	0.7%	Clc1ccccc1Cc1noc(CN2CCCCC2c2ccccn2)n1 (stereo unspecified)
23%	.	.	-0.5%	Cc1ccc(S(=O)(=O)CCC(=O)Nc2nnc(CC(C)C)s2)cc1
-12%	-9	2%	2.5%	Cc1sc(NC(=O)CSc2nnnn2C(C)C)c(C#N)c1C
-9%	1	4%	-4.1%	O=c1ccn(CCc2c[nH]c3ccccc23)c2c1CCCC2
0%	-23	3%	-0.2%	Cc1sc2nc(CN(C(=O)NCc3ccccc3)C3CCCC3)[nH]c(=O)c2c1C
-9%	-8	22%	-0.1%	COc1ccc2ccc3c(c2c1)N=CC1(O3)N(C)c2ccccc2C1(C)C (stereo unspecified)
2%	.	1%	1.4%	Nc1nonc1-n1nnc(C(=O)N/N=C/c2ccncc2)c1CSc1ccccc1
0%	.	-25%	-1.7%	O=C(NCCCCc1ccccc1)C1CCCC1
0%	1	4%	-0.2%	COc1ccc2[nH]c(=O)c(CN(C(=O)c3cccnc3)c3cc(C)ccc3C)cc2c1
?	.	-3%	-5.0%	CCOC(=O)c1c(O)cc(C)cc1Nc1ccccc1
1%	2	1%	-2.8%	COc1ccc(S(=O)(=O)CC(O)CN2CCCC2=O)cc1 (stereo unspecified)
13%	4	-63%	-1.2%	COc1ccc(-c2nc(C#N)c(NCCc3ccccc3)o2)cc1OC
0%	.	14%	-0.2%	CC(C)c1ccc(NC2CCCN(C(=O)c3ccccc3-c3ncc[nH]3)C2)cc1 (stereo unspecified)
9%	.	-1%	0.3%	COc1cc(-c2n[nH]c(=S)n2C(C)c2ccccc2)cc(OC)c1OC (stereo unspecified)
-7%	-23	-1%	-5.5%	COc1cc(S(=O)(=O)N(Cc2ccco2)C2CCCC2)ccc1-n1cnnn1
7%	.	?	1.6%	COc1ccc(CCC(=O)NCCS(=O)(=O)N2CCN(c3ccccc3OC)CC2)cc1
2%	.	.	2.4%	CCCNC(=O)C1CC(c2ccccc2C(F)(F)F)=NO1 (stereo unspecified)
3%	-4	-11%	4.2%	COc1ccc(-c2cc(C(F)(F)F)nc(SCC(=O)Nc3sc4c(c3C#N)CCC4)n2)cc1
?	5	-12%	?	Cc1cccc(C2CC(c3ccccc3)Nc3nc(N)nn32)c1 (stereo unspecified)
3%	.	.	-1.4%	CCC1(c2ccc(F)cc2)NC(=O)N(CC(=O)NC2CC2)C1=O (stereo unspecified)
5%	-1	-55%	2.8%	O=C(COc1ccccc1Cl)Nc1ccc2c(c1)OCCO2
3%	5	-7%	0.4%	O=C(NNC(=O)c1ccc(NC(=O)c2ccccc2)cc1)Nc1ccccc1
-13%	2	-4%	-1.1%	Cn1cc(Cl)c(C(=O)Nc2nc3ccccc3s2)n1
4%	-2	0%	2.3%	O=C(NCC(=O)N(c1ccccc1)C(C(=O)NC1CCCC1)c1cccnc1)c1cccs1 (stereo unspecified)
-14%	-2	-14%	-1.7%	COc1cc(C(C(=O)NC(C)(C)C)N(C(=O)CNC(=O)c2cccs2)c2ccc(C(C)C)cc2)cc(OC)c1OC (stereo unspecified)
4%	3	-6%	0.0%	Cc1ccccc1CCN(C(=O)Cn1nnc2ccccc21)C(C(=O)NCC1CCCO1)c1nc2ccccc2n1C (stereo unspecified)
0%	-5	-4%	0.3%	C=CCN(C(=O)CNS(=O)(=O)c1ccccc1)C(C(=O)NCCOC)c1ccncc1 (stereo unspecified)
0%	0	-2%	2.8%	O=C(CSc1cccc[n+]1[O-])Nc1cc(S(=O)(=O)N2CCOCC2)ccc1N1CCOCC1
1%	-1	-41%	2.5%	CC(C)=CC(=O)Nc1ccc(Br)cc1
-2%	-4	-16%	-5.3%	O=C(Nc1ccccc1)Nc1ccccc1C(=O)NCc1ccco1
-5%	.	-2%	1.5%	CN(C)CC(C)(C)CNCc1cc(=O)oc2ccc3ccccc3c12
-8%	.	-17%	2.3%	CCOC(=O)c1ccc2ncc(C(=O)OCC)c(NCCN3CCOCC3)c2c1
-22%	-4	-38%	?	Nc1[nH]c(N=NC(=O)c2ccc(F)cc2)c2ccccc12
-9%	-1	6%	12%	Cn1c(O)c(/C=N/Nc2ccccc2)c(=O)n(C)c1=O
-15%	3	-2%	-2.2%	CCN(CC)CC(C)OC(=O)COc1ccc(OC)cc1 (stereo unspecified)
57%	4	-4%	-1.6%	CCCCCCC[C@H](N)[C@H](O)C(=O)N(C)[C@@H](CCS(C)=O)C(=O)N[C@@H](Cc1ccc(O)cc1)C(=O)N[C@@H](Cc1ccc(O)cc1)C(=O)O (stereo partly specified)
7%	-6	?	-0.9%	O=C(CCl)Nc1cn(-c2ccccc2)nc1-c1ccccc1
-11%	-6	-7%	0.8%	Cc1c(CNC2CCCC(C)C2C)c(C(=O)O)c(C)n1Cc1ccccc1 (stereo unspecified)
11%	.	.	-2.7%	Cc1ccc(S(=O)(=O)N2CCC(C(=O)OCCOc3cccc(C)c3)CC2)cc1
8%	-5	0%	1.9%	CN1CCN(CC(=O)N/N=C/c2ccc(F)c(F)c2)CC1

Sorted by SMILES length (smallest number first): some entries from above.
Rango dissoc inh	GLA inh pH 4.5	miR-21 reporter	Rango-impB inh	Molecule
-9%	-1	6%	12%	Cn1c(O)c(/C=N/Nc2ccccc2)c(=O)n(C)c1=O
-22%	-4	-38%	?	Nc1[nH]c(N=NC(=O)c2ccc(F)cc2)c2ccccc12
-5%	.	-2%	1.5%	CN(C)CC(C)(C)CNCc1cc(=O)oc2ccc3ccccc3c12

Additional entries follow.
Rango dissoc inh	GLA inh pH 4.5	miR-21 reporter	Rango-impB inh	Molecule
2%	2	7%	0.7%	NC(=O)CC[C@H](NC(=O)c1ccc(F)cc1)C(=O)OCC(=O)Nc1ccc(N2CCOCC2)cc1
0%	.	.	0.4%	COc1ccc(S(=O)(=O)N2CCOC2CNC(=O)C(=O)NCc2ccc3c(c2)OCO3)cc1 (stereo unspecified)
4%	.	-5%	3.8%	Cc1ccc(NC(=O)CN2CCc3cc4c(cc3C2)OCCCO4)cc1C
5%	.	-4%	3.4%	O=C(O)c1ccc2c(=O)n3c(nc2c1)/C(=C/c1ccc(Cl)c(Cl)c1)CC3
-9%	-2	0%	0.1%	CC(=O)Nc1ccc(NC(=O)c2ccc(CSc3ccccc3)o2)cc1
51%	3	3%	1.3%	COC(=O)c1c(SCC(=O)Nc2ccc(C)c(C)c2)nc(=O)[nH]c1C
33%	4	5%	1.0%	COc1ccc(CCNC(=O)COC(=O)C2CCCCC2)cc1
6%	2	1%	-0.9%	CCOC(=O)CSc1nc2sc3c(c2c(=O)[nH]1)CC(C)(CC)OC3 (stereo unspecified)
-3%	-1	-60%	0.8%	COc1ncccc1-c1nnn(-c2ccccc2)n1

A stretch from further up, as a working copy:
Rango dissoc inh	GLA inh pH 4.5	miR-21 reporter	Rango-impB inh	Molecule
2%	2	7%	0.7%	NC(=O)CC[C@H](NC(=O)c1ccc(F)cc1)C(=O)OCC(=O)Nc1ccc(N2CCOCC2)cc1
0%	.	.	0.4%	COc1ccc(S(=O)(=O)N2CCOC2CNC(=O)C(=O)NCc2ccc3c(c2)OCO3)cc1 (stereo unspecified)
